Assay outcomes (PubChem)
NPR1 antag: Natriuretic polypeptide receptor (hNpr1) antagonism - Primary qHTS | Potency, µM (titrated, usually from 46.3 µM), for inactives: at the top dose activity change, negative = inhibition, hits mostly inhibitors | HEK293 hNpr1 GloSensor cGMP, ANP-stimulated luminescence | hit rate 1.6% among 76,000 | Atrial natriuretic peptide receptor 1 (Homo sapiens), P16066; active = well fitted inhibition curve with a large enough effect; inconclusive = small, poorly fitted or top-dose-only effect; inactive = no such curve, though single readings can be large or run the other way;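 also: nearly all actives have a fitted effect of over 60% in size; nearly all hits also lower the signal before the agonist is added; a reference antagonist and vehicle were the controls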
Target sequence (P16066 whole entry, looked up): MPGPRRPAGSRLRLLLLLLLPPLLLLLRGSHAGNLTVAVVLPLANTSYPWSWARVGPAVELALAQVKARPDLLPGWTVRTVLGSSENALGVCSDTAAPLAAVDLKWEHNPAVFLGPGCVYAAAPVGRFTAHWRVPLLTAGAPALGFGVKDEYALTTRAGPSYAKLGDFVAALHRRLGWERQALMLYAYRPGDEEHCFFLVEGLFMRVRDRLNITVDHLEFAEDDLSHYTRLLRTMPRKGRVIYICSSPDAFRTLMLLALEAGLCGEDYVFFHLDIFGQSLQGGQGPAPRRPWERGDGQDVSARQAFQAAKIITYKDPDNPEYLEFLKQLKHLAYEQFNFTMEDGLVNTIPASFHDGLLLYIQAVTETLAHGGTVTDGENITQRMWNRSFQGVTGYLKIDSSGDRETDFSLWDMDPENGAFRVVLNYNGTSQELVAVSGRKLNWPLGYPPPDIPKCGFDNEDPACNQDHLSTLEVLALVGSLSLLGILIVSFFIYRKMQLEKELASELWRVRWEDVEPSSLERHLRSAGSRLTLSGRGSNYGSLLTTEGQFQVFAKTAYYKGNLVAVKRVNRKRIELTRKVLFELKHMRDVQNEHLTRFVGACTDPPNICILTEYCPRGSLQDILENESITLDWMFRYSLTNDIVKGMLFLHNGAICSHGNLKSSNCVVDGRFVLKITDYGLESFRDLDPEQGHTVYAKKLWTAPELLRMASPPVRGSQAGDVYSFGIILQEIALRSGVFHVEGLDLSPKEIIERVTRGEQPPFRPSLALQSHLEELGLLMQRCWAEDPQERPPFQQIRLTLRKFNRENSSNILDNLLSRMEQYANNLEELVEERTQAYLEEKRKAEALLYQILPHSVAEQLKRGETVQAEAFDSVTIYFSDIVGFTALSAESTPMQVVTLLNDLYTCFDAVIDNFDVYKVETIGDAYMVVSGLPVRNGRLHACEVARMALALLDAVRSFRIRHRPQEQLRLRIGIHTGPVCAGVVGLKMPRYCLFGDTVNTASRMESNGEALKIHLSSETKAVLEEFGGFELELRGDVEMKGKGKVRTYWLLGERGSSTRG
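Compound pre-incubated 30 min at room temperature on GloSensor-loaded HEK293 cells stably carrying hNpr1 and the pGS-40F cGMP biosensor. Stimulation uses hNppA at 0.1 nM final; luminescence is taken at baseline and 20 min post-agonist.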
Numbers without * were called inactive; ? = inconclusive; [ ] = another dose, or the depositor's remark. % is scaled to controls: 0 for no effect and ±100 for the full control effect; potency is read from the fitted curve at half-maximal effect.

Molecule | NPR1 antag
COc1ccc(-c2ccnc(N[C@H]3CO[C@H]4[C@@H]3OC[C@H]4OC(=O)Nc3cccc4ccccc34)n2)cc1 | -25%
COc1cc(F)cc(-c2cccc(COc3cnc4c(ccn4CC(=O)O)c3)c2)c1 | -2%[70.6 µM]
CC(C)C[C@@H]1N[C@H](C(=O)NCCCn2ccnc2)Cc2c[nH]c3cccc1c23 | 2%[70.6 µM]
COCCOC1CCOC2(CCN(C(=O)c3ccccc3OC)CC2)C1 (stereo not drawn) | 0%
CCOc1cc(=O)n2c(c1C(=O)NCCCOC(C)C)CCCCC2 | 1%
COC(=O)c1ccc2nc(C[C@@H]3C[C@@H](C(C)C)[C@H](CNC(=O)c4cnccn4)C=C3C)[nH]c2c1 | -14%
Cc1ccc(Cn2c(C3CCN(C(=O)c4cccc(Cl)c4)CC3)n[nH]c2=O)cc1 | 5%
COc1ccccc1C(C(=O)O)N1CCC(OCc2cccnc2)CC1 (stereo not drawn) | 1%
O=C1CN(Cc2ccc(-c3cc(F)cc(F)c3)cc2)CCN1c1nccc(Cl)n1 | -22%
O=C(CC[C@@H]1CNC(=O)[C@@H]2C[C@H](NC(=O)Nc3cccc(Cl)c3)CN12)NCc1cccs1 | -1%
C=CCNC(=O)N1CCC(O)(c2csc(CN3CCN(c4ccccn4)CC3)n2)CC1 | 1%
Cc1ccc(C)c(NC(=O)Cn2c(-c3cccc(Cl)c3)nc(C)c(CCO)c2=O)c1 | 1%
Fc1ccc(-c2ccc3ncc(Nc4ncccn4)n3n2)cc1 | 9%[70.6 µM]
CCS(=O)(=O)N1CCC2(CCC2OC)CC1 (stereo not drawn) | 3%
CCCCNc1ccc2nncn2n1 | -4%
CN(Cc1ccncc1)Cc1ccc(-c2ccccc2)cc1 | ?
COc1ccc(S(=O)(=O)N2CCc3c(C(=O)NCc4ccncc4)cccc32)cc1 | ?
CN(Cc1ccccc1)Cc1cn([C@H]2CO[C@H]3[C@@H]2OC[C@@H]3NC(=O)COc2ccccc2)nn1 | 3%
COC[C@@H]1CN(C(=O)c2ccccc2OC)C[C@H]1c1ccncc1 | -3%
CC(C)N1CCN(C(=O)C2CCN(C(=O)N3CC4CC(C3)[C@H]3CCCC(=O)N3C4)CC2)CC1 (stereo partly drawn) | 10%
O=C(c1cccc(Cl)c1)N1CCN(C(=O)c2nnn3c2COC(c2ccc(Cl)cc2)C3)CC1 (stereo not drawn) | -18%
CCc1nc(NC(=O)Cn2nc3c(cc2=O)CCCCC3)sc1C | 3%
CN1c2cc(C(=O)NCc3cc(F)cc(F)c3)ccc2C(=O)N2CCCCC21 (stereo not drawn) | -5%
COC(=O)[C@H](NC(=O)[C@@]1(O)C[C@@H](O)[C@H](O)[C@@H](NC(=O)CC2(CC(=O)O)CCCC2)C1)C(C)C | 1%
COc1cc2c(cc1OC)C(CNC(=O)c1ccccc1C)N(C(=O)Nc1ccccc1)CC2 (stereo not drawn) | -4%
O=C1NCCCCCN(C(=O)CN2CCOCC2)[C@H]2CCC[C@@H]12 | 0%
CCn1ccc(C(=O)N2C[C@@H](Oc3ccccc3)C[C@H]2C(=O)NC2CC2)n1 | -10%
CCN(CC)C(=O)C(C)[C@@H]1CC[C@@]2(C)CC[C@H](NC(C)=O)[C@@H](C)[C@@H]2[C@H]1O (stereo partly drawn) | 1%[70.6 µM]
COCC1CN(C)CC12CCN(C(=O)c1cc(Cl)ccc1OC)CC2 (stereo not drawn) | -5%
Cc1ccc(-c2nc(C(=O)NCCc3ccccc3)no2)cc1 | 1%
O=C(NCCC1=CCCN(CCCn2cccc2)C1)c1ccco1 | 0%
O=C([C@@H]1C[C@H](F)CN1S(=O)(=O)Cc1ccc(Cl)cc1)N1CCc2ccccc2C1 | ?
COc1ccccc1CCC(=O)Nc1ccc(-c2nnc3n2CCCC3)cc1 | -9%
Cc1ccc(F)cc1-c1nccc2c(=O)cc(N(C)C)oc12 | 0%[70.6 µM]
CCN1CCC(N2CC(Oc3cccc(C(=O)NCC4CC4)c3)C2)CC1 | 5%
CC(=O)c1cc(C(=O)N2CCC(n3nccc3NC(=O)CC(C)C)CC2)cs1 | 0%
Cc1nc(-c2ccc(F)cc2)n(CC(=O)Nc2cc(C(F)(F)F)ccc2Cl)c(=O)c1CCO | 5%
COCC(=O)N1CCCCCCNC(=O)[C@@H]2CCCC[C@@H]21 | -5%
Cc1nc(N2CCC(NC(=O)c3cccc4[nH]ccc34)CC2)cc(C(F)(F)F)n1 | -26%
COc1ccccc1N1CCN(C(=O)CCc2conc2-c2ccccc2F)CC1 | -8%
Cc1ccc(C2Cn3nnc(C(=O)N4CCN(C(=O)c5cccc(C)c5)CC4)c3CO2)cc1 (stereo not drawn) | 11µM*
CCOCc1nc(C2CCCN2C(=O)NCCC(=O)OCC)no1 (stereo not drawn) | -1%
CN(C)c1cccc(NC(=O)C2=NO[C@@H]3CN(c4cccnc4)C[C@H]23)c1 | -15%[70.6 µM]
CC(C)Cc1noc(-c2ccc(N3CCC(O)CC3)nc2)n1 | 8.9µM*
CCCN(CC1CCOC1)C(=O)NC(C)C (stereo not drawn) | 2%
CN1CCCN(C[C@@H]2CN(C(=O)CCc3ccc(F)cc3)C[C@@H]2CO)CC1 | 3%
Cc1cccc(-c2ccc3c(c2)C(=O)N2CC[C@H](NC(=O)C4CCCC4)[C@H]2C(=O)N3)c1C | -4%[70.6 µM]
COc1ccc(CN2CC3(CCN(C(=O)Nc4ccc5c(c4)OCCO5)CC3)C2=O)cc1 | -21%
COc1ccc(-c2nn(-c3ccccc3)cc2CN2CCN3CCCC3C2)c(F)c1 (stereo not drawn) | -19%
CC(C)(C)c1coc([C@@H]2COCCN2Cc2ccccc2)n1 | 1%[70.6 µM]
O=C1C(N2CCN(S(=O)(=O)c3cc(F)cc(F)c3)CC2)CCN1Cc1ccccn1 (stereo not drawn) | -3%
COc1ccc(CCC(=O)N2[C@@H]3CC[C@H]2CC(NC(=O)c2ccncc2)C3)cc1 (stereo partly drawn) | -4%
Cc1cc(C)n(CC(=O)N2CCC3(CC2)CC(N2CCN(C(C)C)CC2)CCO3)n1 (stereo not drawn) | 2%
CN1CCCCCCN(S(=O)(=O)c2cccc(F)c2)[C@H]2CCC[C@H]2C1=O | -8%
O[C@H]1[C@H](NCC2CC2)[C@@H](c2cncnc2)C[C@H]1O | 3%[70.6 µM]
Cc1c(F)cccc1NC(=O)N1C[C@@H](F)C[C@H]1C(=O)N1CCCCC1 | 1%

Further records follow:
Molecule | NPR1 antag
Cn1ncc(N2CCCC(CC(=O)NC3CC3)C2)cc1=O (stereo not drawn) | -3%
O=C(Cn1cccc1-c1nc(-c2ccccc2)no1)Nc1cc(F)ccc1Cl | 4%
O=C1CCC2(CNC(=O)C3CC3)CCCC=C2N1 (stereo not drawn) | 5%
COc1cccc(CCC(=O)N2CCC3(CC2)N(c2ccccc2)C(=O)CS3(=O)=O)c1 | 2%
COc1cc(OC)cc(C(=O)N2CCCN(S(C)(=O)=O)c3ccccc32)c1 | -10%
CCN(CC)C(=O)[C@@H]1CCC[C@@H](NS(C)(=O)=O)CN(C)C(=O)C1 | -2%[70.6 µM]
CCC(=O)N1CCC(Oc2ncccc2C(=O)N(C)C)C1 (stereo not drawn) | -1%
COc1ccc([C@H]2C[C@@H](O)[C@@H](O)[C@@H]2NC(=O)Cc2ccc(Cl)cc2)cc1 | 0%[70.6 µM]
Cc1nc(-c2c3n(c(=O)n(CC(=O)Nc4ccc(Cl)cc4F)c2=O)CCCCC3)no1 | 5%
CC(=O)c1cc(C(=O)NC2CCCN(c3nc4ccccc4s3)C2)[nH]n1 (stereo not drawn) | -3%
Cc1ccc(N2CCN(c3ncncc3-c3nc(-c4ccccc4)no3)CC2)cc1 | -18%
COC(=O)[C@@H]1Cc2ncn(C(C)C)c2CN1S(=O)(=O)c1ccc([N+](=O)[O-])cc1 | 0%[70.6 µM]
Cc1ccsc1[C@@H]1CCN(Cc2ccc(C#CC(C)(C)O)cc2)C[C@H]1O | -11%
Cc1ccc(C(=O)NC2CC(c3nnc(Cn4cccn4)n3C)C2)s1 (stereo not drawn) | 6%
CC(C)c1nccn1CCCNC(=O)c1ccc(N2CCCC(CO)C2)nc1 (stereo not drawn) | 3%
O=C(Nc1ccsc1)N[C@H]1C[C@H]2C(=O)NC[C@@H](CCC(=O)N3CCCCC3)N2C1 | -2%[70.6 µM]

NPR1 antag, what is marked active above
Molecule | NPR1 antag
Cc1ccc(C2Cn3nnc(C(=O)N4CCN(C(=O)c5cccc(C)c5)CC4)c3CO2)cc1 (stereo not drawn) | 11µM*
CC(C)Cc1noc(-c2ccc(N3CCC(O)CC3)nc2)n1 | 8.9µM*

Back to the main list, repeating the five entries before the break.
Molecule | NPR1 antag
COC(=O)[C@@H]1Cc2ncn(C(C)C)c2CN1S(=O)(=O)c1ccc([N+](=O)[O-])cc1 | 0%[70.6 µM]
Cc1ccsc1[C@@H]1CCN(Cc2ccc(C#CC(C)(C)O)cc2)C[C@H]1O | -11%
Cc1ccc(C(=O)NC2CC(c3nnc(Cn4cccn4)n3C)C2)s1 (stereo not drawn) | 6%
CC(C)c1nccn1CCCNC(=O)c1ccc(N2CCCC(CO)C2)nc1 (stereo not drawn) | 3%
O=C(Nc1ccsc1)N[C@H]1C[C@H]2C(=O)NC[C@@H](CCC(=O)N3CCCCC3)N2C1 | -2%[70.6 µM]
CC1(C(=O)N2C[C@@H](Oc3ccccc3)C[C@H]2C(=O)NC2CC2)CCCCC1 | 6%
COc1cccc(-c2noc(Nc3cc(OC)c(OC)c(OC)c3)n2)c1 | 7%
O=C(CN1CC2CC(C1)[C@H]1CCCC(=O)N1C2)Nc1ccc(N2CCOCC2)cc1 (stereo partly drawn) | -6%
CSCc1ccc(C(=O)N2CCCC(O)(CN3CCCC3)C2)o1 (stereo not drawn) | 6%
Cc1oc2c(c1C(=O)N1CCCC1)CN(Cc1ccc(F)cc1)CC2 | 1%
COCc1cc(=O)n(CC(=O)Nc2cccc(C)c2)c(N2CCOCC2)n1 | 1%
Cc1ccncc1-c1c(C)nn2c1N(Cc1cccc(OC(F)(F)F)c1)CCC2 | ?
CO[C@H]1C(=O)N(C(C)C)[C@H]1C1CCN(C(=O)c2cnn(C)c2)CC1 | 4%
O=C(CN1C(=O)COc2ccc(C(=O)COc3ccc(F)cc3)cc21)Nc1ccccc1 | -5%
Cc1ccc(C(=O)N2CCC3(CC2)CC(c2cccc(C(F)(F)F)c2)=NO3)cc1 | -26%
COc1ccc(CCC2CCCN(S(=O)(=O)N(C)C)C2)cc1 (stereo not drawn) | -15%
CN1C(=O)CN(Cc2ccccc2C#N)C(=O)c2ccccc21 | 1%
CCC(O)c1cc2n(n1)CCN(C(=O)CN1CCOc3ccccc3C1)C2 (stereo not drawn) | 1%
CN1C(=O)CCC2(CNC(=O)CCc3nc4ccccc4[nH]3)CCC=C12 (stereo not drawn) | 5%
CCOc1ccccc1NC(=O)N1CCCC(c2noc(COc3ccccc3)n2)C1 (stereo not drawn) | -14%
COc1ccc(Cn2c(C3CCN(C(=O)c4ccc(F)c(Cl)c4)CC3)n[nH]c2=O)cc1 | -3%

Reformatted: entries from further up.
NPR1 antag	Structure
-5%	O=C(CN1C(=O)COc2ccc(C(=O)COc3ccc(F)cc3)cc21)Nc1ccccc1
-26%	Cc1ccc(C(=O)N2CCC3(CC2)CC(c2cccc(C(F)(F)F)c2)=NO3)cc1

(next part)
Molecule | NPR1 antag
Cc1oc(C(O)c2ccccc2F)nc1C(=O)Nc1ccccc1C(N)=O (stereo not drawn) | 25µM*
Cc1cc(C)c(CNC(=O)c2nc(-c3cncnc3)cc3c2ccn3C(C)C)c(=O)[nH]1 | 5%[70.6 µM]
O=C(Cn1ccn2nc(-c3ccccc3)c(CO)c2c1=O)Nc1ccc(Cl)cc1F | -10%
COc1cc(NC(=O)N2CC(c3noc(-c4ccccc4)n3)C2)cc(OC)c1OC | -27%
O=C(c1cncc(Br)c1)N1CCCC(CN2CCOCC2)CC1 (stereo not drawn) | 3%
CCN1C(=O)C2(CCN(S(=O)(=O)c3ccc(C)c(C)c3)CC2)c2ccccc21 | 2%
Cc1ccncc1C(=O)N1CCCN(Cc2ccncc2)C(c2ccccc2)CC(=O)NCC1 (stereo not drawn) | -2%
NC(=O)c1ccc(CC2CCN(C(=O)C3CCOCC3)CC2)cc1 | 0%
COc1ccc(Cl)cc1-c1ccc2c(c1)C(=O)N1CC[C@H](NC(=O)C3CCCC3)C[C@H]1C(=O)N2 | 1%
O=C(c1ccccn1)N1CCC2(CC1)NC(=O)N(Cc1ccc(F)cc1)C2=O | 0%
CCOc1ccc2c(n1)CCN(C(=O)COc1ccccc1)C2 | 3%
CNC(=O)[C@H]1C[C@H](Oc2cccnc2)CN1C(=O)NCc1ccc(F)cc1 | -4%
Cc1noc([C@@H]2CN(C(=O)c3n[nH]c4ccccc34)C[C@H]2C(N)=O)n1 | 0%
CC1CCC2(CC1)NC(=O)N(CC(=O)Nc1ccc3c(c1)OCO3)C2=O (stereo not drawn) | -1%
C[S+](=O)([O-])c1ccc(-c2cc3c(ccn3Cc3ccncc3)c(N3CCOCC3)n2)cc1 | 1%

Only part of the results is shown; count on the stated rates, not on these rows.
